A1 apoptosis 2 = compounds inhibiting A1, read as caspase activation; MEF A1-2A-BIM cells, caspase-Glo luminescence, 3 h; percent of clofoctol response, DMSO zero; caspase activation, % (concentration not given with the values); 24,000 tested, under 10 active; AID 2465; in the data active means caspase activation above about 5.9%;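 further: wells of about 30 µL received 50 nL stock; the first replicate is given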
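Material: A1-2A-BIM-expressing MEF cells. Buffer or medium: RPMI-1640 plus 10% FBS. Incubation: cells settled overnight, compound exposure 3 h at 37 °C, 5% CO2. Signal: Caspase-Glo 3/7 luminescence, 1 h at room temperature.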
The depositor's hits bear a star. These rows are one share of the data. The share of hits here may be higher or lower than overall.

SMILES	A1 apoptosis 2
C[C@H]1CN([C@@H](C)CO)C(=O)c2cc(N(C)C)ccc2O[C@H]1CN(C)Cc1ccccc1	0.0
C[C@H]1CCCCO[C@@H](CN(C)S(=O)(=O)c2ccccc2)[C@@H](C)CN([C@@H](C)CO)C(=O)c2cc(NC(=O)CCC(F)(F)F)ccc2O1	-0.5
C[C@H](CO)N1C[C@H](C)[C@H](CN(C)Cc2ccc(C(=O)O)cc2)Oc2c(NC(=O)c3ccc(-c4nccs4)cc3)cccc2C1=O	1.3
C[C@@H]1CN([C@@H](C)CO)C(=O)c2cc(NC(=O)c3ccncc3)ccc2O[C@H]1CN(C)S(C)(=O)=O	-0.1
C[C@@H]1CN([C@H](C)CO)C(=O)Cc2cc(NC(=O)C3CC3)ccc2O[C@@H]1CN(C)C(=O)Nc1ccc(C(F)(F)F)cc1	-0.1
COc1ccc(Br)c(/C=N/NC(=O)c2cccc(C(=O)NO)c2)c1	-2.5
Cc1ccc(S(=O)(=O)Nc2ccc3c(c2)CC(=O)N([C@@H](C)CO)C[C@@H](C)[C@@H](CN(C)S(=O)(=O)c2ccc(Cl)cc2)O3)cc1	0.3
C[C@@H]1CN([C@@H](C)CO)C(=O)Cc2cc(NS(=O)(=O)c3ccc(F)cc3)ccc2O[C@H]1CN(C)S(=O)(=O)c1cn(C)cn1	0.3
COc1ccc(S(=O)(=O)Nc2ccc3c(c2)CC(=O)N([C@H](C)CO)C[C@H](C)[C@@H](CN(C)S(=O)(=O)c2ccc(F)cc2)O3)cc1	-1.8
COc1ccc(S(=O)(=O)Nc2cccc3c2O[C@@H](CN(C)S(=O)(=O)c2c(C)noc2C)[C@H](C)CN([C@H](C)CO)C3=O)cc1	1.2
C[C@H](CO)N1C[C@H](C)[C@@H](CN(C)CC2CCCCC2)OCCCC[C@H](C)Oc2ccc(NC(=O)CCC(F)(F)F)cc2C1=O	0.9
C[C@@H]1CCCCO[C@@H](CN(C)C(=O)C2CCCCC2)[C@H](C)CN([C@@H](C)CO)C(=O)c2cc(NC(=O)c3ccncc3)ccc2O1	-1.6
COc1ccc(S(=O)(=O)Nc2ccc3c(c2)C(=O)N([C@H](C)CO)C[C@H](C)[C@@H](CN(C)C(=O)Nc2ccccc2)OCCCC[C@@H](C)O3)cc1	-0.2
COc1ccc(CN(C)C[C@@H]2Oc3ccc(NS(=O)(=O)c4cccs4)cc3C(=O)N([C@H](C)CO)C[C@@H]2C)cc1	-0.5
C[C@@H]1CN([C@H](C)CO)C(=O)c2cccc(NS(=O)(=O)c3ccc(Cl)cc3)c2O[C@H]1CN(C)S(=O)(=O)c1cn(C)cn1	-1.1
CC(C)NC(=O)Nc1cccc2c1O[C@H](CN(C)Cc1ccc(C(=O)Nc3ccccc3N)cc1)[C@H](C)CN([C@@H](C)CO)C2=O	-1.5
C[C@@H]1CCCCO[C@H](CN(C)C(=O)C2CCCCC2)[C@H](C)CN([C@@H](C)CO)C(=O)c2cc(N(C)C)ccc2O1	-2.9
C[C@@H]1CN([C@@H](C)CO)C(=O)c2cc(N(C)C)ccc2O[C@@H](C)CCCCO[C@H]1CN(C)C(=O)CCC(F)(F)F	0.8
C[C@@H]1CN([C@@H](C)CO)C(=O)c2cccc(NC(=O)c3nc4ccccc4s3)c2O[C@H]1CN(C)Cc1ccc(C(F)(F)F)cc1	2.3
C[C@@H]1CCCCO[C@H](CN(C)Cc2ccc(C(=O)O)cc2)[C@H](C)CN([C@@H](C)CO)C(=O)c2cc(NC(=O)CCC(F)(F)F)ccc2O1	0.2
C[C@H](CO)N1C[C@H](C)[C@@H](CN(C)Cc2ccc(Cl)c(Cl)c2)Oc2ccc(NC(=O)C3CC3)cc2C1=O	-0.7
C[C@H](CO)N1C[C@H](C)[C@@H](CN(C)Cc2ccc(C(=O)O)cc2)OCCCC[C@H](C)Oc2ccc(NC(=O)c3ccccc3)cc2C1=O	0.0
C[C@H](CO)N1C[C@H](C)[C@@H](CN(C)S(=O)(=O)c2ccccc2)Oc2ccc(NC(=O)CCCCCC(=O)Nc3ccccc3N)cc2CC1=O	-0.8
Cc1cc(C(=O)Nc2cccc3c2O[C@@H](CN(C)Cc2ccc(Oc4ccccc4)cc2)[C@H](C)CN([C@@H](C)CO)C3=O)n(C)n1	-1.3
C[C@@H]1CN([C@H](C)CO)C(=O)c2cc(NC(=O)NC3CCCCC3)ccc2O[C@H]1CN(C)C(=O)Nc1ccccc1	1.0
C[C@@H]1CN([C@H](C)CO)C(=O)c2cc(NS(=O)(=O)c3ccc(Cl)cc3)ccc2O[C@@H]1CN(C)C(=O)Nc1ccccc1	-0.1
C[C@@H]1CCCCO[C@H](CN(C)C(=O)c2ccccc2)[C@@H](C)CN([C@@H](C)CO)C(=O)c2cc(NC(=O)Nc3ccc4c(c3)OCO4)ccc2O1	0.2
CC(C)NC(=O)Nc1ccc2c(c1)C(=O)N([C@@H](C)CO)C[C@@H](C)[C@H](CN(C)C(=O)CCCN(C)C)OCCCC[C@H](C)O2	0.3
CCO[C@H]1OC(C(=O)O)=C[C@@H](c2cn(C(C)=O)c3ccccc23)[C@@H]1CCCO	0.7
C[C@H]1CCCCO[C@@H](CN(C)C(=O)c2ccccc2)[C@@H](C)CN([C@@H](C)CO)C(=O)c2cc(NC(=O)Nc3ccc(F)cc3)ccc2O1	1.0
C[C@H](CO)N1C[C@H](C)[C@H](CN(C)C(=O)Nc2ccccc2)Oc2ncc(C#Cc3ccccc3)cc2C1=O	-0.6
C[C@@H]1CCCCO[C@H](CN(C)C(=O)Cc2ccccc2)[C@H](C)CN([C@H](C)CO)C(=O)c2cc(NC(=O)Nc3ccc(F)cc3)ccc2O1	-0.5
C[C@H](CO)N1C[C@H](C)[C@@H](CN(C)C(=O)c2ccccc2)OCCCC[C@H](C)Oc2ccc(NC(=O)Cc3ccccc3)cc2C1=O	1.0
C[C@H]1CN([C@@H](C)CO)C(=O)Cc2cc(NC(=O)C3CCCCC3)ccc2O[C@H]1CN(C)C(=O)Nc1ccc2c(c1)OCO2	-0.7
Cc1ccc(S(=O)(=O)Nc2cccc3c2O[C@@H](CN(C)C(=O)Nc2ccccc2)[C@@H](C)CN([C@H](C)CO)C3=O)cc1	0.0
C[C@H]1CN([C@@H](C)CO)C(=O)c2cccc(NC(=O)Nc3ccc(C(F)(F)F)cc3)c2O[C@@H]1CN(C)C(=O)Nc1ccccc1	-0.5
C[C@@H]1CN([C@H](C)CO)C(=O)Cc2cc(NC(=O)Nc3ccc(C(F)(F)F)cc3)ccc2O[C@H]1CN(C)Cc1ccc(C(F)(F)F)cc1	0.3
CCO[C@@H]1OC(C(=O)Nc2ccccc2)=C[C@H](C2CC2)[C@H]1CCCO	0.5
O=C(C1=C[C@@H](c2ccc3c(c2)OCO3)C[C@@H](OCCCCO)O1)N1CCOCC1	0.6
C[C@H]1CN([C@@H](C)CO)C(=O)c2cccc(NC(=O)c3cnccn3)c2O[C@@H]1CN(C)C(=O)Nc1ccccc1	1.1
C[C@H]1CN([C@@H](C)CO)C(=O)c2cc(NC(=O)Nc3cccc4ccccc34)ccc2O[C@@H]1CN(C)Cc1ccc(Oc2ccccc2)cc1	0.1
NC(=O)COc1ccccc1/C=N/NC(=O)c1ccccc1O	-1.5
COc1ccc(S(=O)(=O)N(C)C[C@@H]2Oc3c(NC(=O)c4cnccn4)cccc3C(=O)N([C@H](C)CO)C[C@@H]2C)cc1	2.3
C[C@H](CO)N1C[C@H](C)[C@@H](CN(C)C(=O)Nc2ccc3c(c2)OCO3)Oc2ccc(NC(=O)NC3CCCCC3)cc2CC1=O	0.4
C[C@@H]1CN([C@H](C)CO)C(=O)c2cc(NC(=O)Nc3ccc(F)cc3)ccc2O[C@@H](C)CCCCO[C@H]1CN(C)C(=O)Nc1ccc(C(F)(F)F)cc1	-0.1
COC(=O)c1c(CC[C@@H](CO)NC(=O)N[C@@H](Cc2ccccc2)Cn2cc(C3(O)CCCC3)nn2)oc(C(=O)N2CCOCC2)c1C(=O)OC	-0.4
C[C@@H]1CN([C@H](C)CO)C(=O)c2cccc(NS(=O)(=O)c3ccccc3)c2O[C@@H]1CN(C)CC1CCCCC1	-0.7
C[C@H]1CN([C@@H](C)CO)C(=O)CCCn2cc(nn2)CO[C@@H]1CN(C)S(=O)(=O)c1ccccc1	0.8
C[C@@H]1CCCCO[C@H](CN(C)S(=O)(=O)c2cccs2)[C@H](C)CN([C@H](C)CO)C(=O)c2cc(NC(=O)Cc3ccccc3)ccc2O1	0.2
C[C@@H]1CCCCO[C@@H](CN(C)C(=O)CCCN(C)C)[C@H](C)CN([C@@H](C)CO)C(=O)c2cc(NC(=O)Cc3ccccc3)ccc2O1	-1.5

Reformatted as a markdown table: part of the list above.
| SMILES | A1 apoptosis 2 |
| --- | --- |
| COC(=O)c1c(CC[C@@H](CO)NC(=O)N[C@@H](Cc2ccccc2)Cn2cc(C3(O)CCCC3)nn2)oc(C(=O)N2CCOCC2)c1C(=O)OC | -0.4 |
| C[C@@H]1CN([C@H](C)CO)C(=O)c2cccc(NS(=O)(=O)c3ccccc3)c2O[C@@H]1CN(C)CC1CCCCC1 | -0.7 |
| C[C@H]1CN([C@@H](C)CO)C(=O)CCCn2cc(nn2)CO[C@@H]1CN(C)S(=O)(=O)c1ccccc1 | 0.8 |
| C[C@@H]1CCCCO[C@H](CN(C)S(=O)(=O)c2cccs2)[C@H](C)CN([C@H](C)CO)C(=O)c2cc(NC(=O)Cc3ccccc3)ccc2O1 | 0.2 |

Following part.
SMILES	A1 apoptosis 2
COc1ccc(NC(=O)Nc2ccc3c(c2)C(=O)N([C@H](C)CO)C[C@@H](C)[C@H](CN(C)S(=O)(=O)c2ccccc2)OCCCC[C@@H](C)O3)cc1	-2.1
COc1ccc(NC(=O)Nc2ccc3c(c2)CC(=O)N([C@@H](C)CO)C[C@@H](C)[C@H](CN(C)Cc2ccc4c(c2)OCO4)O3)cc1	-0.9
C[C@@H]1CN([C@@H](C)CO)C(=O)Cc2cc(NC(=O)Cc3cn(C)c4ccccc34)ccc2O[C@@H]1CN(C)Cc1ccc(C(=O)Nc2ccccc2N)cc1	0.1
C[C@@H]1CN([C@@H](C)CO)C(=O)c2cccc(NC(=O)Nc3ccc(C(F)(F)F)cc3)c2O[C@@H]1CN(C)C(=O)Nc1ccc(F)cc1	0.7
COc1ccc(CN(C)C[C@@H]2OCCCC[C@@H](C)Oc3ccc(NC(=O)Nc4cccc5ccccc45)cc3C(=O)N([C@@H](C)CO)C[C@@H]2C)cc1	-0.1
C[C@@H]1CN([C@H](C)CO)C(=O)c2cccc(NC(=O)C3CCOCC3)c2O[C@@H]1CN(C)S(=O)(=O)c1cn(C)cn1	-1.0
COc1ccc(/C=N/NC(=O)c2ccccn2)cc1Br	-4.9
COc1ccc(NC(=O)N(C)C[C@@H]2OCCCC[C@@H](C)Oc3ccc(NC(=O)Nc4cccc5ccccc45)cc3C(=O)N([C@@H](C)CO)C[C@H]2C)cc1	1.5
CC(C)NC(=O)N(C)C[C@H]1OCc2cnnn2CCCC(=O)N([C@@H](C)CO)C[C@@H]1C	0.5
COc1ccc(NC(=O)N(C)C[C@@H]2Oc3c(NC(=O)Nc4c(C)noc4C)cccc3C(=O)N([C@H](C)CO)C[C@H]2C)cc1	0.6

Compounds shown so far containing a Cl atom, in the order listed:
SMILES	A1 apoptosis 2
Cc1ccc(S(=O)(=O)Nc2ccc3c(c2)CC(=O)N([C@@H](C)CO)C[C@@H](C)[C@@H](CN(C)S(=O)(=O)c2ccc(Cl)cc2)O3)cc1	0.3
C[C@@H]1CN([C@H](C)CO)C(=O)c2cccc(NS(=O)(=O)c3ccc(Cl)cc3)c2O[C@H]1CN(C)S(=O)(=O)c1cn(C)cn1	-1.1
C[C@H](CO)N1C[C@H](C)[C@@H](CN(C)Cc2ccc(Cl)c(Cl)c2)Oc2ccc(NC(=O)C3CC3)cc2C1=O	-0.7
C[C@@H]1CN([C@H](C)CO)C(=O)c2cc(NS(=O)(=O)c3ccc(Cl)cc3)ccc2O[C@@H]1CN(C)C(=O)Nc1ccccc1	-0.1

Next part.
SMILES	A1 apoptosis 2
Cc1noc(C)c1NC(=O)N(C)C[C@H]1OCCCC[C@@H](C)Oc2ccc(NC(=O)NC(C)C)cc2C(=O)N([C@H](C)CO)C[C@H]1C	-0.4
C[C@@H]1CN([C@@H](C)CO)C(=O)c2cc(NS(=O)(=O)c3ccccc3)ccc2O[C@@H]1CN(C)C(=O)Nc1ccc(C(F)(F)F)cc1	0.4
C[C@H](CO)N1C[C@H](C)[C@H](CN(C)Cc2ccc(C(=O)O)cc2)Oc2ccc(NC(=O)Nc3ccccc3)cc2CC1=O	0.4
C[C@@H]1CN([C@@H](C)CO)C(=O)c2cc(NC(=O)C3CCCCC3)ccc2O[C@@H](C)CCCCO[C@H]1CN(C)C(=O)c1ccccc1	-1.1
Cc1ccc(S(=O)(=O)Nc2ccc3c(c2)C(=O)N([C@H](C)CO)C[C@@H](C)[C@H](CN(C)C(=O)Nc2cccc4ccccc24)O3)cc1	-0.2
Cc1noc(C)c1NC(=O)Nc1ccc2c(c1)C(=O)N([C@H](C)CO)C[C@@H](C)[C@H](CN(C)C(=O)Nc1ccccc1)OCCCC[C@@H](C)O2	-0.3
C[C@H]1CN([C@@H](C)CO)C(=O)c2cccc(NS(=O)(=O)c3cn(C)cn3)c2O[C@@H]1CN(C)CC1CC1	0.9
C[C@@H]1CCCCO[C@@H](CN(C)S(=O)(=O)c2ccccc2)[C@H](C)CN([C@@H](C)CO)C(=O)c2cc(NS(C)(=O)=O)ccc2O1	0.6
C[C@@H]1CN([C@H](C)CO)C(=O)CCCn2cc(nn2)CO[C@H]1CN(C)Cc1ccncc1	-1.9
Cc1ccc(S(=O)(=O)Nc2ccc3c(c2)CC(=O)N([C@H](C)CO)C[C@@H](C)[C@H](CN(C)CC2CCCCC2)O3)cc1	-1.4
C[C@H](CO)N1C[C@H](C)[C@H](CN(C)Cc2ccc(-c3ccccc3)cc2)Oc2c(NS(=O)(=O)c3ccc(F)cc3)cccc2C1=O	0.1

Bioassay records deposited in PubChem BioAssay by Broad Institute.
